Compound activity from PubChem.
MgcRacGAP: MgcRacGAP inhibitors via phosphate release, confirmation, orthogonal assay, biochemical, inorganic phosphate detection, Rac1 (AID 652142) | MgcRacGAP/Rac1F28L GTP hydrolysis, Biomol green phosphate; hits give high values; test concentration not given here; none was called active though about 1 in 100 pass the limit | inhibition, % | 2,400 tested, under 10 active;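 active means inhibition over three standard deviations or about 65%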;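 further: full inhibition control lacks the GAP enzyme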
Numbers without * were called inactive. This is a subset (hit frequency here may not be typical).

| nr | canonical_smiles | MgcRacGAP |
| --- | --- | --- |
| 1 | COc1cc(OC)c(OC)cc1/C=C1\C(=O)NC(=O)N(Cc2ccccc2)C1=O | 23 |
| 2 | CCN1CCN(c2ccc(N)c(C)c2)CC1 | 9 |
| 3 | O=C(O)CCn1cc(C=C2C(=O)NC(=O)NC2=O)c(-c2ccc(Br)cc2)n1 | 30 |
| 4 | Cc1ccc2c(C)c3ccc4ccccc4c3c[n+]2c1 | 41 |
| 5 | NC(N)=N/N=C/c1ccc(N(c2ccccc2)c2ccccc2)cc1 | 22 |
| 6 | COc1cc(N2CCOCC2)ccc1/C=C1\C(=O)NC(=O)N(Cc2ccc3c(c2)OCO3)C1=O | 22 |
| 7 | C=CCN1C(=O)/C(=C/c2ccc(Br)s2)C(=O)NC1=S | 41 |
| 8 | CC1=NNC(=O)C1Br (centres undefined) | 74 |
| 9 | O=C1NC(=O)N(c2ccc3c(c2)OCO3)C(=O)/C1=C\c1ccc(-c2ccccc2C(=O)O)o1 | 19 |
| 10 | COc1ccccc1OCC#CCN1CCCC(C)C1 (centres undefined) | -3 |
| 11 | O=C(NC1CCCCC1)Oc1cc2oc(=O)sc2cc1Cl | 24 |
| 12 | CCN(CC)c1ccc(/C=C2/C(=O)NC(=O)N(Cc3ccco3)C2=O)cc1 | 38 |
| 13 | COc1cc(CNCCc2ccc3c(c2)OCO3)cc(OC)c1OC | 26 |
| 14 | COc1ccccc1OCC#CCN1CCCC1 | 12 |
| 15 | COc1ccccc1-n1c(O)c(/C=C2\C=Nc3ccccc32)c(=O)[nH]c1=O | 26 |
| 16 | O=C1NC(=S)N(C2CC2)C(=O)/C1=C/c1ccc2c(c1)CCN2CCCCl | 14 |
| 17 | COc1cc2c(ccc3c4cc(OC)c(OC)cc4c[n+](C)c23)cc1O | 55 |
| 18 | COc1cc(-c2ccc(N)c(OC)c2)ccc1N | 27 |
| 19 | CC1CN1P(=O)(Oc1ccc2ccccc2c1)N1CC1C (centres undefined) | 21 |
| 20 | O=c1c2ccccc2nc(/C=C/c2ccc(O)cc2)n1-c1ccccc1O | 14 |
| 21 | Cc1cc(-c2cc(C)c(N)c(C)c2)cc(C)c1N | 26 |
| 22 | CN(C)c1ccc2c(c1)N=C(c1ccco1)OP2(=S)N1CCOCC1 (centres undefined) | 32 |
| 23 | CN(C)c1ccc(/C=C2/C(=O)NC(=O)N(Cc3ccco3)C2=O)cc1 | 4 |
| 24 | Nc1ccc(Sc2ccc(N)cc2)cc1 | 18 |
| 25 | COc1ccc(CCNCc2ccccc2)cc1 | 24 |

Random excerpt: 5 compounds from above, in no set order.
| nr | canonical_smiles | MgcRacGAP |
| --- | --- | --- |
| 5 | NC(N)=N/N=C/c1ccc(N(c2ccccc2)c2ccccc2)cc1 | 22 |
| 14 | COc1ccccc1OCC#CCN1CCCC1 | 12 |
| 10 | COc1ccccc1OCC#CCN1CCCC(C)C1 (centres undefined) | -3 |
| 16 | O=C1NC(=S)N(C2CC2)C(=O)/C1=C/c1ccc2c(c1)CCN2CCCCl | 14 |
| 18 | COc1cc(-c2ccc(N)c(OC)c2)ccc1N | 27 |

Grouped by structure: the entries above containing a halogen (5)
| nr | canonical_smiles | MgcRacGAP |
| --- | --- | --- |
| 3 | O=C(O)CCn1cc(C=C2C(=O)NC(=O)NC2=O)c(-c2ccc(Br)cc2)n1 | 30 |
| 7 | C=CCN1C(=O)/C(=C/c2ccc(Br)s2)C(=O)NC1=S | 41 |
| 8 | CC1=NNC(=O)C1Br (centres undefined) | 74 |
| 11 | O=C(NC1CCCCC1)Oc1cc2oc(=O)sc2cc1Cl | 24 |
| 16 | O=C1NC(=S)N(C2CC2)C(=O)/C1=C/c1ccc2c(c1)CCN2CCCCl | 14 |
